gsp ag – activates gsp, the McCune-Albright syndrome mutation; Potency, µM (titrated, usually from 76.9 µM), without a hit: top-dose activation (cAMP increase), usual class: activators; 340,000 compounds, 0.13% hits; gsp mutant cells, cAMP HTRF, 30 min; control for the full effect not named in the record; active = well fitted activation curve with a large enough effect; inconclusive = small, poorly fitted or top-dose-only effect, or another doubt; inactive = no such curve, though single readings can be large or run the other way; cell line not stated here;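 further: phosphodiesterase inhibitor Ro 20-1724 added with compounds to block cAMP breakdown; potency means the concentration at half of the fitted maximal effect; nearly all actives have a fitted effect of over 60% in size; about a fifth of the inactives were tested at one dose only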
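Cells in DMEM/10% FBS with G418 were pretreated with compounds in DMSO plus […] (300 uM stock) for 30 min at 37C. cAMP was measured by HTRF (cAMP-d2 plus anti-cAMP antibody-K) after 30 min at room temperature.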
Sfp inh – inhibitors of Bacillus subtilis Sfp phosphopantetheinyl transferase; Potency, µM, inactives show max response, negative = inhibition, usual class: inhibitors; 310,000 compounds, 3.5% hits; Biochemical Sfp PPTase activity, qHTS; Q9F4F7; active means well fitted inhibition curve with a large enough effect; inconclusive means small, poorly fitted or top-dose-only effect, or another doubt; inactive means no such curve, though single readings can be large or run the other way;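 further: the enzyme is Sfp with the accession as filed and its product quenches rhodamine fluorescence; potency means the concentration at half of the fitted maximal effect; 0% = enzyme reaction without inhibitor and -100% = no enzyme wells; top concentration of the series not given in the record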
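Sfp 15 nM + cpd, 15 min RT; start w/ rhodamine-CoA 5 uM, BHQ-2-YbbR 12.5 uM (final); 50 mM Hepes pH 7.6, 10 mM MgCl2, 0.01% NP-40, 0.01% BSA; read 525/598 nm at 0 and 30 min.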
gsp antag – antagonizes gsp, the McCune-Albright syndrome mutation. gsp-mutant cells, cAMP HTRF, 30 min; control for the full effect not named in the record. Potency, µM (series often up to 76.9 µM), without a hit: at the highest dose activity change, negative = inhibition, hits mostly inhibitors. 340,000 compounds, 0.4% hits; active = falling curve of any shape with a large fitted effect; inconclusive = falling curve, mostly with a smaller effect; inactive = flat or rising curve; cell line not stated here;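 further: intracellular cAMP measured with PDE inhibitor Ro 20-1724 present during compound exposure; potency means the concentration at half of the fitted maximal effect; on the % scale 0 is the no-effect control and ±100 the full control effect; nearly all actives have a fitted effect of over 65% in size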
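G418-selected cells were plated in DMEM/10% FBS for 16-24 h at 37C, then treated with compounds plus the PDE inhibitor […] (300 uM solution added) for 30 min at 37C. Intracellular cAMP was measured by HTRF after 30 min lysis at room temperature.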
Menin-MLL FL inh – inhibitors of human menin-MLL interaction, wild-type MLL peptide; Fluorescence polarization, fluorescein-MLL peptide displacement from menin; FP activity change, % at 61.4 µM; 290,000 tested, under 10 active; AID 1766; inconclusive = falling polarisation curve, or a change in total fluorescence; inactive = total fluorescence flat and polarisation flat or rising; no compound was filed as active; the % refers to the polarisation; negative = inhibition;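 further: % of control where 0% means no effect; inhibitors lower the polarisation; unlabelled MLL peptide was the positive control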
ClpP mod – qHTS Assay for Activators of ClpP. purified B. subtilis ClpP, FRET peptide cleavage, 20 min. Potency, µM (titrated, usually from 57.5 µM), for inactives: at the highest dose activity change, negative = active. 340,000 compounds, 1.9% hits; active = well fitted falling curve with a large enough effect; inconclusive = small, poorly fitted or top-dose-only effect; inactive = no such curve, though single readings can be large or run the other way; further: potency means the concentration at half of the fitted maximal effect; the source files actives as falling curves though it sought activators and does not explain the sign; nearly all actives have a fitted effect of over 65% in size; many hits overshoot -100%
Target sequence (P80244 whole entry, looked up): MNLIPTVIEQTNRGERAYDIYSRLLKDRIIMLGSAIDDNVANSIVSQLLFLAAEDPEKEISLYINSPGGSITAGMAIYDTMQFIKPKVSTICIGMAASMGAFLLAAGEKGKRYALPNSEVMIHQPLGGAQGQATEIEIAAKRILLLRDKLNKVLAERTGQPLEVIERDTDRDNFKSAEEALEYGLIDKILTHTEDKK
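Purified B. subtilis ClpP, 10 microg/mL final in Tris/HCl pH8 with KCl, BSA, glycerol and Tween-20, cleaved an Abz/nitrotyrosine-quenched decapeptide. Fluorescence (ex 320, em 430) was read at 0 and 20 min at room temperature. Delta was normalized to 5.8 microM ADEP and DMSO/no-enzyme controls.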
CtBP-E1A inh – blocks the CtBP interaction with E1A. AlphaScreen GST-E1A/His-CtBP binding, 1536-well; hits give low values; control for the full effect not named in the record. 340,000 compounds, 0.49% hits. activity change, % (test concentration not listed). AID 651724; in the data active means activity change below about -65%; inconclusive means about -30% to -65%; inactive means above about -30%; further: on the % scale 0 is the no-effect control and ±100 the full control effect
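GST-E1A and His-tagged CtBP (125 nM each as 5X stock) were preincubated with pin-transferred compound for 2 h at 37 °C in the dark, then glutathione donor and nickel acceptor beads were added for 1 h before AlphaScreen reading.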
TRPV1 PAM – human TRPV1 potentiation; Q8NER1; TRPV1-expressing cells, Fluo-8 calcium influx, capsaicin EC20 potentiation; host cell line not named in the record; control for the full effect not named in the record; potentiation, % at 8.33 µM; 320,000 compounds, 0.02% hits; active means potentiation above 80%; inconclusive means 30% to 80%; inactive means below 30%; further: 0% is about no effect
Target sequence (Q8NER1 whole entry, looked up): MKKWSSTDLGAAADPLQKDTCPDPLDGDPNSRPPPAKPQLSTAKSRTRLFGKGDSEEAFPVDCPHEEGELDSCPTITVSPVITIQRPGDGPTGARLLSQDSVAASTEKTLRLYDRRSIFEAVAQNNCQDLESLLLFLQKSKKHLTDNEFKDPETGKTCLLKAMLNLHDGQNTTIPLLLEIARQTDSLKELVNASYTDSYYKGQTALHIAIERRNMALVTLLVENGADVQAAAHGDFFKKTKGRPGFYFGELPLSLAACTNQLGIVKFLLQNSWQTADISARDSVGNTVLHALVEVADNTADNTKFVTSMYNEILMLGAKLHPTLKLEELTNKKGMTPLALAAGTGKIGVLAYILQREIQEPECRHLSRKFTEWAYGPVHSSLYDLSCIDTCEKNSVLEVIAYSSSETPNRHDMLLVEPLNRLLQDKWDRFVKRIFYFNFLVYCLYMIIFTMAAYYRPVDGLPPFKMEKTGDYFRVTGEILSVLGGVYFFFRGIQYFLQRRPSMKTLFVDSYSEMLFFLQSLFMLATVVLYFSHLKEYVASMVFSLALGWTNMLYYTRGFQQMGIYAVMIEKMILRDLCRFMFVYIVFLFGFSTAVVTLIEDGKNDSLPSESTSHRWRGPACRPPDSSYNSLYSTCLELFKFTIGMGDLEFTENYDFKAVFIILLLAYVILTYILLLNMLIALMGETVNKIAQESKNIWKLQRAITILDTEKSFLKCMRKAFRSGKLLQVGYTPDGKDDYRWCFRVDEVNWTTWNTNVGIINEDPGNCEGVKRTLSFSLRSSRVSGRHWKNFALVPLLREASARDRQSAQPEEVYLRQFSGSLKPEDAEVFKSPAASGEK
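Fluo-8 calcium influx in TRPV1-expressing cells, kinetic read (ex 480/em 520 nm). Compound added and read 3 min for agonist activity, followed by capsaicin at EC20 final and 2 min further read for enhancement.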
* hit, by the source's call; ? = inconclusive; . = not tested or not shown; & = joins results of further samples; [ ] = another dose, or the depositor's remark. Rows are unselected; about 5.3% have a hit in one of these screens.

SMILES	gsp ag	TRPV1 PAM	Menin-MLL FL inh	gsp antag	Sfp inh	ClpP mod	CtBP-E1A inh
COc1cccc(NC(=O)COC(=O)C2CCN(S(=O)(=O)c3cccs3)CC2)c1	?	10	13	-4%	17%	.	3
c1nc(SSc2ncnc3nc[nH]c23)c2[nH]cnc2n1	13%	.	.	0%	.	1.6%	8
Cc1cccn2c(CN[C@H]3CCCCNC3=O)c(C(=O)N3CCOCC3)nc12	5%	-4	1.1	-7%	8%	.	17
O=C(CSc1ccc2nc(-c3ccccc3)cn2n1)NCC1CCCO1 (stereo not drawn)	?	-3	1.7	-16%	11%	4.0%	-9
O=C(Nc1ccc(OCc2ccccc2Cl)cc1)c1cccnc1	-25%	-3	0.0	-10%	-7%	1.2%	.
CC1(OC(=O)c2ccco2)C(=O)C=C2C=C(C3CC3)OC=C2C1=O (stereo not drawn)	.	.	1.0	-13%	17%	1.1%	0
NC(=O)NCc1ccc(F)cc1	-7%[15.4 µM]	-2	-3.7	11%	15%	.	-1
O=c1c2[nH]c3ccccc3c2nc2n1CCS2	3%[15.4 µM]	3	-1.8	14%	6%	.	-6
CCC(=O)N1CCC2(CC1)Oc1ccc(Cl)cc1C(=O)C21CC(c2ccccc2)=NO1 (stereo not drawn)	10%	-17	1.0	-10%	-3%	-6.0%	-23
Cc1cc(C)c2nc(NC(=O)c3ccc4c(=O)n5c(nc4c3)CCCCC5)sc2c1	-71%[inhibitor]	-5	5.0	-9%	3%	-7.2%	.
COc1ccccc1C1=NNC(=Nc2cccc(S(=O)(=O)N(C)C)c2)SC1	-5%[15.4 µM]	8	3.9	0%	-93%	-3.9%	2
Cc1c(N=C2NC(=O)C(CC(=O)Nc3ccccc3)S2)c(=O)n(-c2ccccc2)n1C (stereo not drawn)	-21%	5	-0.5	-11%	-7%	0.4%	4
O=C(O)c1ccccc1C(=O)NCC(O)COc1ccc(Cl)cc1 (stereo not drawn)	-17%[15.4 µM]	-13	?	8%	-6%	.	6
CCc1ccccc1NC(=S)N1CCN(c2ccccc2F)CC1	10%[15.4 µM]	-20	-3.9	14%	9%	1.0%	-1
COc1cc(OC)cc(C(=O)NC2CC3CCC(C2)N3C)c1 (stereo not drawn)	-6%	5	.	13%	.	-13%	-8
COc1ccc(S(=O)(=O)N2CCC(C(=O)NCC(c3cccs3)N(C)C)CC2)cc1 (stereo not drawn)	-2%	26	2.4	-2%	-18%	1.4%	-1
COc1cccc(COc2nc3c(c(=O)n(C)c(=O)n3C)n2C)c1	?	-2	0.5	-1%	7%	0.7%	-3
COc1ccc(OC)c(S(=O)(=O)N/N=C\c2c[nH]c3ccccc23)c1	-4%[15.4 µM]	16	-0.9	-2%	12%	-2.2%	0
CCc1nc(CN2CCN(c3cc(C(F)(F)F)ccn3)CC2)c(C)[nH]1	3%	-7	-0.1	6%	?	-10%	-5
O=C(NC1(C(F)(F)F)NC(=O)N(Cc2ccccc2)C1=O)c1cccs1 (stereo not drawn)	18%	.	.	-1%	.	-0.3%	3
COc1cccc(C(=O)CSc2nc3ccccc3n2CC(=O)N(C(C)C)C(C)C)c1	-3%	-3	0.0	-6%	20%	-0.8%	11
CN(c1ccccc1)S(=O)(=O)c1ccc(NC(=O)c2nc(S(C)(=O)=O)ncc2Cl)cc1	-2%	25	.	10%	28µM*	6.2%&11%	-4
C#CCOCCOCCOCCNc1nc(N2CCN(C(=O)[C@H](CCC(=O)O)n3cc(C(N)CO)nn3)CC2)nc(N2CCN(C(=O)[C@H](CCC(=O)O)n3cc(C(N)CO)nn3)CC2)n1 (stereo partly drawn)	.	-13	-5.3	.	-24%	.	.
CCOC(=O)N1CCN(C(=O)C2CCC(=O)N2C(C)C)CC1 (stereo not drawn)	-5%	1	1.9	12%	23%	-1.7%	8
C/C(=N\NC(=O)C1CCCC1)c1ccc(Cl)c(Cl)c1	-16%	-2	.	-4%	15%	0.3%	15
Cc1ccc(-n2nnnc2SCC(=O)N2CCc3ccccc3C2)cc1	-4%	-1	0.7	-12%	2%	3.0%	-1
NS(=O)(=O)c1ccc(NC(=S)NCc2cccc(Cl)c2)cc1	-24%	15	4.4	15%	11%	-4.5%	0
CCOC(=O)CN1C(=O)CSc2ccc(S(=O)(=O)N3CCOCC3)cc21	10%	-5	.	7%	8%	-1.6%	-1
C#CCN1C=CC(=O)[C@@H](OC(=O)Nc2ccc(Br)cc2)[C@H]1c1ccccc1Br	.	.	.	?	.	3.4%	2
N#CCCNc1ccc(OCCC#N)cc1	?	4	3.3	-2%	9%	-2.4%	-3
Cc1ccc(-n2c(CSc3nc(C)cc(C)n3)nnc2SCC(=O)N2CCCC2)cc1	13%	-10	-2.4	-6%	23%	0.2%	3
COc1ccc(-n2c(=O)cc(N3CCc4ccccc43)[nH]c2=O)cc1	-4%	5	4.7	-6%	-4%	-2.7%	-16
Cc1cc(C(=O)OCC(=O)N2CCc3ccccc32)c(C)o1	?	2	-0.4	-5%	18%	0.7%	4
Cc1cc(Cl)ccc1NC(=S)NCc1ccc(F)cc1	2%[15.4 µM]	16	-0.7	0%	16%	-2.5%	0
CC(=O)N1CCC(C(=O)OCc2ccc(Cl)cc2)(c2ccccc2)CC1	-43%[15.4 µM]	14	0.2	-5%	7%	.	0
O=C1c2ccccc2C(=O)N1COc1ccc(S(=O)(=O)N2CCOCC2)cc1[N+](=O)[O-]	2%	0	-12	7%	14%	.	3
COc1ccc(Cl)cc1NC(=O)C1CCN(C(=O)C2CC(=O)N(c3ccc(C)cc3)C2)CC1 (stereo not drawn)	-5%[15.4 µM]	1	-1.0	-15%	-8%	.	7
O=C(CN1C(=O)NC2(CCc3ccccc32)C1=O)c1cccs1 (stereo not drawn)	-26%	.	.	?	.	1.4%	14
Cc1ccc2cccc(SCC(=O)Nc3ccc(F)cc3)c2n1	5%[15.4 µM]	5	1.1	-20%	21%	0.5%	4
CCCC(=O)Nc1nc(C)c(-c2csc(Nc3cc(OC)ccc3OC)n2)s1	4%	-3	3.9	-5%	-19%	-3.5%	-16
O=S(=O)(NCCS(=O)(=O)N1CCN(c2ccccc2)CC1)c1ccc(F)cc1	4%[15.4 µM]	-10	.	2%	.	.	-2
CCOC(=O)Nc1ccc(NS(=O)(=O)c2ccc(C)cc2)cc1	-24%	-4	-1.7	7%	4%	-1.4%	3
O=C(Nc1scc(-c2cccs2)c1C(=O)O)c1cccs1	5%	5	-1.3	-15%	4%	-5.6%	?
COc1ccc(NC(=O)CC2C(=O)N(C)C(=S)N2CCc2ccc(F)cc2)cc1 (stereo not drawn)	-18%[15.4 µM]	-5	-1.6	-8%	11%	-2.1%	-10
Cc1ccc(C(=O)N(Cc2cccs2)C2CCS(=O)(=O)C2)cc1 (stereo not drawn)	9%	3	.	2%	3%	-3.0%	.
CC1(C)Cc2c(c(N3CCOCC3)nc3sc4c(NCCN5CCOCC5)nnnc4c23)CS1	-4%	-5	4.5	-10%	13%	-5.5%	.
CN(C)S(=O)(=O)Oc1ccsc1C(=O)Nc1ccccc1Cl	-41%	-3	0.4	28µM*	-1%	-3.0%	0
O=C(CN(Cc1ccc(F)cc1)C(=O)c1csnn1)NCc1ccccc1	14%	6	2.8	-2%	12%	.	1
COCCCn1c(SCC(=O)Nc2cccc(C(=O)OC)c2)nnc1-c1ccncc1	-30%[inhibitor]	0	-2.1	-8%	0%	0.2%	5
COc1cccc(S(=O)(=O)N(C)C[C@@H]2OCc3cnnn3CCCC(=O)N([C@H](C)CO)C[C@H]2C)c1	34%	.	.	.	.	-1.4%	3
CCOc1ccccc1NC(=O)C(=O)CC(=O)c1cccc(OC)c1	1%	?	6.3	0%	18%	-0.1%	-5
COc1cc(CN2CCN(C(=O)c3cccc4ccccc34)CC2)cc(OC)c1OC	-18%	0	-0.1	-17%	-3%	0.0%	.
COc1ccccc1Sc1nc(-c2ccccc2)ncc1OC	12%	8	2.3	-12%	9%	.	15
Cc1cc(C)c(S(=O)(=O)NCc2ccc3c(c2)OCO3)c(C)c1	0%[15.4 µM]	12	0.9	-8%	0%	-4.8%	1
C=CCNC(=O)c1csc(-c2ccccc2)n1	9%	-12	6.4	-7%	12%	-0.2%	3
O=C(CSc1ccc(Cl)cc1)N1N=CCC1c1ccccc1 (stereo not drawn)	1%[15.4 µM]	-7	2.6	?	10%	-2.9%	-2
C[C@@H]1CN([C@H](C)CO)C(=O)CCCn2nncc2CO[C@H]1CN(C)S(=O)(=O)c1cccc(C#N)c1	15%	.	.	.	.	-2.7%	-13
COc1ccc(C(=S)N2CCOCC2)cc1OC(=O)c1cc([N+](=O)[O-])c(C)c([N+](=O)[O-])c1	-34%	6	-0.1	2%	-13%	-1.2%	0

Pulled by compound from the list above, five records:
SMILES	gsp ag	TRPV1 PAM	Menin-MLL FL inh	gsp antag	Sfp inh	ClpP mod	CtBP-E1A inh
COc1cccc(S(=O)(=O)N(C)C[C@@H]2OCc3cnnn3CCCC(=O)N([C@H](C)CO)C[C@H]2C)c1	34%	.	.	.	.	-1.4%	3
COc1ccc(C(=S)N2CCOCC2)cc1OC(=O)c1cc([N+](=O)[O-])c(C)c([N+](=O)[O-])c1	-34%	6	-0.1	2%	-13%	-1.2%	0
O=C(CSc1ccc(Cl)cc1)N1N=CCC1c1ccccc1 (stereo not drawn)	1%[15.4 µM]	-7	2.6	?	10%	-2.9%	-2
CCOc1ccccc1NC(=O)C(=O)CC(=O)c1cccc(OC)c1	1%	?	6.3	0%	18%	-0.1%	-5
Cc1cc(C)c(S(=O)(=O)NCc2ccc3c(c2)OCO3)c(C)c1	0%[15.4 µM]	12	0.9	-8%	0%	-4.8%	1

Compound activity (PubChem BioAssay)
